# Source: PubChem BioAssay (Center for Chemical Genomics, University of Michigan)
# CDC25B CDK2 inh = human CDC25B-CDK2/CyclinA binding inhibition; HTRF CDC25B-CDK2/CyclinA binding, anti-His/anti-Flag; active compounds read high; z-score (test concentration not listed); hit rate 0.72% among 94,000;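 note: score is relative to mean and SD of negative controls; strong numbers were not always called active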
# TAR Tat displ = HIV-1 TAR-Tat binding disruption; HIV-1 TAR RNA, Tat peptide displacement FRET; active compounds read high; z-score (test concentration not listed); hit rate 0.6% among 100,000; AID 1259389;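 note: score is relative to mean and SD of negative controls; some compounds called inactive have numbers as strong as hits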
# An asterisk follows results filed as active; / = no result given; & = joins results of further samples.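 Rule for the calls: active = z-score from 3 up in half or more of its runs; inactive = the rest.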
SMILES | CDC25B CDK2 inh | TAR Tat displ
COc1cccc(-c2nc(=S)c3c(n2CCCN(C)C)CCCC3)c1 | -2 | 1.6
OCCN1CCN(C2CCN(Cc3cccc(Cl)c3)CC2)CC1 | -0.35 | /
Cn1cccc1-c1cc2n(n1)CCCN2C(=O)Nc1ccccc1F | / | 1.4
Cc1ccccc1Nc1c(-c2cccnc2)nc2ccccn12 | -2.2 | /
CC(=O)N1c2ccc(S(=O)(=O)N3CCC4(CC3)Nc3cc(C)ccc3-n3cccc34)cc2CC1C (configuration not stated) | / | -0.22
CCOc1ccc(NC(=S)NC(NC(=O)Cc2cccc3ccccc23)C(Cl)(Cl)Cl)cc1 (configuration not stated) | -4.3 | /
CC(C)C(NS(=O)(=O)c1cccs1)C(=O)NCCN1CCCC1 (configuration not stated) | / | 1.2
Cc1cc(C)c(NC(=O)C(C)Sc2nc(C)nc3c2CCC3)c(C)c1 (configuration not stated) | 0.04 | -0.19
O=C(Nc1ccc2nc3n(c(=O)c2c1)CCCCC3)C1COc2ccccc2O1 (configuration not stated) | -1.5 | 0.83
Cc1cccc(C2Nc3ccccc3-n3cc4c(=O)n(C)c(=O)n(C)c4c32)c1 (configuration not stated) | -0.46 | -0.4
CC1(C)CC(=O)C2=C(C1)NC(=O)CC2c1ccccc1Br (configuration not stated) | -1.1 | 1.2
CC1=C(C(=O)N(CC(=O)N2CCOCC2)c2ccc(Cl)cc2)SCCO1 | / | 0.31
CCCCOc1ccccc1C1CC(=O)Nc2cc3c(cc21)OCCO3 (configuration not stated) | -1.4 | /
CCCSCCCN1C(=O)c2nc3ccccc3n2CC1(C)C(=O)NC1CCCC1 (configuration not stated) | / | -0.04
C=CCSc1nnc(NC(=O)c2cc(=O)c3cc(C)ccc3o2)s1 | 0.17 | 2.2
NC(Cc1cc(F)cc(F)c1)C(=O)O (configuration not stated) | -1.5 | /
CCS(=O)(=O)c1ccc(O)c(NC(=O)COCC(=O)O)c1 | -0.29 | /
Cc1nc2c(Cl)c(Cl)c(Cl)c(N3CCOCC3)c2[nH]1 | 1.2 | /
Cc1sc2ncnc(Sc3nnnn3-c3ccccc3)c2c1C | -2 | /
CCCCOC(=O)c1c(C)oc2ccc(NS(=O)(=O)c3ccc4c5c(cccc35)C(=O)N4)cc12 | -0.54 | /
CCC(=O)N1c2ccccc2C(=C2SC(C(=O)OC)=C(C(=O)OC)S2)C(=S)C1(C)C | -4.5 | 0.34
CCOc1ccc(CCn2c(C)c(C)c3c2ncn2ncnc32)cc1OCC | -2.4 | 1.7
Fc1ccc(C2=Nc3ccc(Br)cc3NC(c3cccnc3)=N2)cc1 | -1.3 | 0.49
Cc1c(C(=O)O)sc2ncnc(N3CCC(c4ccccc4)C3)c12 (configuration not stated) | / | 0.4
O=C(CSc1ccccc1)N1CCc2ccccc21 | -1.4 | /
Cn1c(SCC(=O)Nc2nccs2)nc2c(c1=O)SCC2 | -1.2 | 1.5
CCC(C)NC(=O)C1CCN(c2ccc(-c3cccs3)nn2)CC1 (configuration not stated) | / | 0.43
Cc1cc(C)cc(NS(=O)(=O)c2ccc3c(c2)CC(=O)N3)c1 | -1.3 | -0.46
CCOC(=O)c1c(C)oc2nc(C)nc(NCCN3CCCCC3C)c12 (configuration not stated) | / | 0.52
O=C(Nc1cccc(-c2cn3cccnc3n2)c1)C1CCCC1 | 0.14 | /

# 2 records drawn at random from the list so far, as already listed:
SMILES | CDC25B CDK2 inh | TAR Tat displ
CCOc1ccc(CCn2c(C)c(C)c3c2ncn2ncnc32)cc1OCC | -2.4 | 1.7
Cc1nc2c(Cl)c(Cl)c(Cl)c(N3CCOCC3)c2[nH]1 | 1.2 | /

# Additional structures follow.
SMILES | CDC25B CDK2 inh | TAR Tat displ
COCc1cc(=O)n2[nH]c(NC(C)=O)nc2n1 | 0.34&0.99 | 3.6
Cc1ccc2cc(CN(C3CCCCC3)S(C)(=O)=O)c(=O)[nH]c2c1 | 0.22 | 0.3
Cc1cc(C)cc(NC(=O)N2CCNC(=O)C2CC(=O)Nc2cc(Cl)ccc2Cl)c1 (configuration not stated) | 1.1 | /
CCOc1ccc(-c2nc(-c3ccc(Cl)cc3)no2)cc1OCC | -0.59 | 0.57
Cc1cc(C)n2nc(SCC(=O)c3cccs3)nc2n1 | -1 | 1.8
CCCCNS(=O)(=O)c1cc(-c2nnc3c4ccccc4c(C)nn23)ccc1OC | -1.4 | 2.3
CCOc1ccc(/C(O)=C2\C(=O)C(=O)N(CCN(C)C)C2c2ccc(F)cc2)c(C)c1 (configuration not stated) | -0.94 | -2.2
O=C(Cn1c(=O)oc2cc(S(=O)(=O)N3CCCCCC3)ccc21)NC1CCCCC1 | -1.2 | /
CCOC(=O)c1c(C)[nH]c(C)c1S(=O)(=O)NCC(=O)NCc1ccc(C)o1 | / | 1.6
O=C(Nc1c2c(nn1-c1ccc(F)cc1)CS(=O)C2)c1cccs1 (configuration not stated) | -0.12 | /
COc1cc(OC)c(NC(=O)Cc2noc3ccccc23)cc1Cl | -2.2 | 1.4
O=C(Cn1nc(C(F)(F)F)c2c1CCCC2)N1CCCc2ccccc21 | -0.22 | -1.3
O=C(Nc1cccc(F)c1)N1CC=C(n2c(=O)[nH]c3ccccc32)CC1 | -1.8 | 1.9
CN(C)CCNC(=O)C1CCN(c2ccc(F)cc2)C1=O (configuration not stated) | / | 1.3
O=C(CN1C(=O)COc2ccc(S(=O)(=O)N3CCCC3)cc21)NCc1cccs1 | -0.77 | /
CCc1ccc(S(=O)(=O)c2nnn3c2nc(NCCCN2CCCC2=O)c2sccc23)cc1 | / | -0.47
COC(=O)C1=C(C)NC2=C(C(=O)CC(C)(C)C2)C1c1cc(Br)c(O)c(OC)c1 (configuration not stated) | 1.1 | /
CC(C)N(Cc1ccccc1)S(=O)(=O)c1ccc(S(=O)(=O)c2ccccc2)s1 | -1.9 | /
O=C(CSc1nc(-c2cccc(Cl)c2)nc2cc(=O)[nH]n12)Nc1ccccc1 | / | 2.6
CCCCCCCCCC(=O)NC(CN1CCOCC1)[C@H](O)c1ccccc1 (some centres not stated) | -0.56 | /
CC(C)(C)C1CCc2c(sc3ncc(NC(=O)c4ccccc4Cl)c(=O)n23)C1 (configuration not stated) | -1.7 | 0.94
COc1ccc(N(C)S(=O)(=O)c2ccc3c(c2)CC(C)N3C(=O)C2CC2)c(OC)c1 (configuration not stated) | / | 0.82
Cc1nc2scc(C)n2c(=O)c1S(=O)(=O)NC1CCN(Cc2ccccc2)CC1 | -1.1 | -0.14
CN(Cc1ccccc1)C(=O)CCS(=O)(=O)c1ccc2c(c1)oc(=O)n2C | / | 2.8
O=C(CSc1nnc(NC(=O)c2cc(-c3ccccc3)on2)s1)c1ccccc1 | -2 | 2.2
Cc1nc(C)c(C(=O)/C=C/N(C)C)o1 | -0.89 | /
COc1ccc(CCN2C(=O)CC(Cc3ccc(Cl)cc3)C2=O)cc1OC (configuration not stated) | 0.06 | /
O=C(CCC(=O)n1ncc2ccc(Cl)cc21)NC1CCCCC1 | -0.08 | -0.49
COc1ccc(Br)cc1C1C(C(=O)N2CCOCC2)=C(C)NC2=C1C(=O)CC(C)(C)C2 (configuration not stated) | / | 1.7
COc1ccc(Oc2cccc(Cl)c2CNC(=O)CC(C)(C)CC(=O)O)cc1 | -1.1 | /

# Reformatted: 25 of the compounds above.
# Values run as follows: CDC25B CDK2 inh, TAR Tat displ
- Cc1cc(C)cc(NC(=O)N2CCNC(=O)C2CC(=O)Nc2cc(Cl)ccc2Cl)c1 (configuration not stated)
  1.1, /
- CCOc1ccc(-c2nc(-c3ccc(Cl)cc3)no2)cc1OCC
  -0.59, 0.57
- Cc1cc(C)n2nc(SCC(=O)c3cccs3)nc2n1
  -1, 1.8
- CCCCNS(=O)(=O)c1cc(-c2nnc3c4ccccc4c(C)nn23)ccc1OC
  -1.4, 2.3
- CCOc1ccc(/C(O)=C2\C(=O)C(=O)N(CCN(C)C)C2c2ccc(F)cc2)c(C)c1 (configuration not stated)
  -0.94, -2.2
- O=C(Cn1c(=O)oc2cc(S(=O)(=O)N3CCCCCC3)ccc21)NC1CCCCC1
  -1.2, /
- CCOC(=O)c1c(C)[nH]c(C)c1S(=O)(=O)NCC(=O)NCc1ccc(C)o1
  /, 1.6
- O=C(Nc1c2c(nn1-c1ccc(F)cc1)CS(=O)C2)c1cccs1 (configuration not stated)
  -0.12, /
- COc1cc(OC)c(NC(=O)Cc2noc3ccccc23)cc1Cl
  -2.2, 1.4
- O=C(Cn1nc(C(F)(F)F)c2c1CCCC2)N1CCCc2ccccc21
  -0.22, -1.3
- O=C(Nc1cccc(F)c1)N1CC=C(n2c(=O)[nH]c3ccccc32)CC1
  -1.8, 1.9
- CN(C)CCNC(=O)C1CCN(c2ccc(F)cc2)C1=O (configuration not stated)
  /, 1.3
- O=C(CN1C(=O)COc2ccc(S(=O)(=O)N3CCCC3)cc21)NCc1cccs1
  -0.77, /
- CCc1ccc(S(=O)(=O)c2nnn3c2nc(NCCCN2CCCC2=O)c2sccc23)cc1
  /, -0.47
- COC(=O)C1=C(C)NC2=C(C(=O)CC(C)(C)C2)C1c1cc(Br)c(O)c(OC)c1 (configuration not stated)
  1.1, /
- CC(C)N(Cc1ccccc1)S(=O)(=O)c1ccc(S(=O)(=O)c2ccccc2)s1
  -1.9, /
- O=C(CSc1nc(-c2cccc(Cl)c2)nc2cc(=O)[nH]n12)Nc1ccccc1
  /, 2.6
- CCCCCCCCCC(=O)NC(CN1CCOCC1)[C@H](O)c1ccccc1 (some centres not stated)
  -0.56, /
- CC(C)(C)C1CCc2c(sc3ncc(NC(=O)c4ccccc4Cl)c(=O)n23)C1 (configuration not stated)
  -1.7, 0.94
- COc1ccc(N(C)S(=O)(=O)c2ccc3c(c2)CC(C)N3C(=O)C2CC2)c(OC)c1 (configuration not stated)
  /, 0.82
- Cc1nc2scc(C)n2c(=O)c1S(=O)(=O)NC1CCN(Cc2ccccc2)CC1
  -1.1, -0.14
- CN(Cc1ccccc1)C(=O)CCS(=O)(=O)c1ccc2c(c1)oc(=O)n2C
  /, 2.8
- O=C(CSc1nnc(NC(=O)c2cc(-c3ccccc3)on2)s1)c1ccccc1
  -2, 2.2
- Cc1nc(C)c(C(=O)/C=C/N(C)C)o1
  -0.89, /
- COc1ccc(CCN2C(=O)CC(Cc3ccc(Cl)cc3)C2=O)cc1OC (configuration not stated)
  0.06, /

# (next part)
SMILES | CDC25B CDK2 inh | TAR Tat displ
COCCN(Cc1ccc(F)cc1)Cc1cc(=O)c2cc(C)ccc2[nH]1 | / | -0.42
O=C1Nc2ccccc2S(=O)(=O)N1c1cccc(Cl)c1 | / | 0.46
CC(C)(C)OC(=O)C(C)(C)ONC(=O)Nc1ccc(Cl)cc1Cl | 0.38 | /
CCCC(NC(=O)c1ccco1)C(=O)O (configuration not stated) | -1.1 | 0.68
CSc1nc2nn(C)nc2c(=O)[nH]1 | 0.35 | /
CCCCSc1nc2n(n1)C(c1ccc(C)cc1)C1=C(CC(C)(C)CC1=O)N2 (configuration not stated) | -1 | 0.74
O=C1Cc2ccccc2C1=C1Cc2ccccc2C1 | -1.2 | /
Cc1nc2sccn2c(=O)c1S(=O)(=O)N1CCCC1 | -1.7 | 3.2
NC(=O)C1CCN(c2ncnc3sc4c(c23)CCCC4)CC1 | -1.2 | 1.2
